Source: PubChem
Lassa entry inh – blocks Lassa virus binding to or entry into cells; Potency, µM (titrated, usually from 37.9 µM), for the others: top-dose activity change, negative = inhibition, actives largely listed as inhibitors; 300,000 tested, 1.2% active; Lassa virus pseudotype entry inhibition, cell reporter; control for the full effect not named in the record; active means well fitted inhibition curve with a large enough effect; inconclusive means small, poorly fitted or top-dose-only effect, or effect the other way; inactive means flat fitted curve, though single readings scatter; tested in HEK293 cells; also: % is scaled to controls: 0 for no effect and ±100 for the full control effect; nearly all actives have a fitted effect of over 50% in size; luciferase read-out
NS1 function inh – inhibitors of influenza NS1 protein function | S. cerevisiae slowed by influenza A NS1, growth recovery by OD600 | Potency, µM (top dose mostly 46.1 µM), for the others: at the highest dose activity, positive = more growth | 270,000 tested, 0.4% active; also: actives are rising curves; nearly all actives have a fitted effect of over 50% in size
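In this qHTS, NS1 from influenza A is expressed in budding yeast, where it slows growth. Cells are switched from glucose to 2% galactose medium (pH 6.0, -URA), treated with compound, and growth recovery is read at OD600.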
RE007 growth inh – less growth of the S. pombe RE007 Vpr strain | Potency, µM (titrated, usually from 92.2 µM), inactives show at the top dose activity change, negative = less growth | S. pombe RE007 Vpr strain, BacTiter-Glo ATP luminescence, 24 h; control for the full effect not named in the record | 360,000 tested, 0.21% active; active = well fitted falling curve with a large enough effect; inconclusive = small, poorly fitted or top-dose-only effect; inactive = no such curve, though single readings can be large or run the other way;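 also: % is scaled to controls: 0 for no effect and ±100 for the full control effect; nearly all actives have a fitted effect of over 50% in size; the assay follows cell death caused by Vpr and the record does not say whether a fall means rescue or toxicity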
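Fission yeast RE007 carrying one integrated HIV-1 vpr copy, seeded at OD 0.01 in PMG+AL medium with 23 nL pinned compound. Grown 24 h at 30 degrees; viability read by BacTiter-Glo luminescence after 5 min.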
Marburg entry inh – Marburg virus entry inhibition. Marburg virus pseudotyped entry inhibition, cell reporter; control for the full effect not named in the record; about a third of the inactives were read at about 46 µM. Potency, µM (doses to about 37.8 µM), without a hit: top-dose activity change, negative = inhibition, hits mostly inhibitors. 300,000 tested, 1.8% active; active = well fitted inhibition curve with a large enough effect; inconclusive = small, poorly fitted or top-dose-only effect, or effect the other way; inactive = flat fitted curve, though single readings scatter; tested in HEK293 cells; about a fifth of its hits are not listed in these tables; also: % is scaled to controls: 0 for no effect and ±100 for the full control effect; luciferase read-out
Cruzain inh Det – cruzain (T. cruzi) inhibition with detergent; P25779; purified cruzain, Z-FR-AMC fluorescence, 0.01% Triton; Potency, µM, for inactives: max response, negative = inhibition, hits mostly inhibitors; 200,000 tested, 0.43% active; AID 1478; active = well fitted curve in the direction sought with a large enough effect; inconclusive = small, poorly fitted or top-dose-only effect, or another doubt; inactive = no such curve, though single readings can be large; an effect the other way counts as inactive or inconclusive;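 also: plate controls were neutral wells for no effect and buffer without enzyme for full effect; nearly all actives have a fitted effect of over 40% in size; top concentration of the series not given in the record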
Target sequence (P25779 123-467 limits assumed): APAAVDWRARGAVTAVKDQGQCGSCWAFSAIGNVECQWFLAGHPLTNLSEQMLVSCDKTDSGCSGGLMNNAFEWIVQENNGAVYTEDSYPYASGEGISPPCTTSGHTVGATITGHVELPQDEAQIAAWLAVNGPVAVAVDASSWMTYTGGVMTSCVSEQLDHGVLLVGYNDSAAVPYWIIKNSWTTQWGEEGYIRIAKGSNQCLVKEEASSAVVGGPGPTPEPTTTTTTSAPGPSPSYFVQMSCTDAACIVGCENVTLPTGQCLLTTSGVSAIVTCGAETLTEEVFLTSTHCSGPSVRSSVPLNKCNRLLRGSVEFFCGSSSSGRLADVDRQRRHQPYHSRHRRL
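Cruzain (1.5 nM) preincubated 15 min at RT with compound in 100 mM sodium acetate pH 5.5, 5 mM DTT, 0.01% Triton X-100. Reaction started with 2 uM Z-FR-AMC; AMC fluorescence (ex 360/em 450 nm) change over 60 s gave rate.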
StopGo reporter – FMDV 2A StopGo reporter, luciferase signal; human cells with a luciferase reporter of 2A StopGo recoding; control for the full effect not named in the record; Potency, µM (titrated, usually from 57.9 µM), inactives show at the highest dose signal change, negative = less light; 410,000 tested, 1.2% active; AID 1159524; active = well fitted falling curve with a large enough effect; inconclusive = small, poorly fitted or top-dose-only effect; inactive = no such curve, though single readings can be large or run the other way; tested in HEK293T cells; also: % is scaled to controls: 0 for no effect and ±100 for the full control effect; nearly all actives have a fitted effect of over 45% in size; luciferase light after 4 h
Cruzain noTriton – cruzain (T. cruzi) inhibition without detergent; P25779; purified cruzain, Z-FR-AMC fluorescence, no detergent; Potency, µM, for inactives: max response, negative = inhibition, hits mostly inhibitors; 200,000 tested, 2.3% active; AID 1476; active = well fitted curve in the direction sought with a large enough effect; inconclusive = small, poorly fitted or top-dose-only effect, or another doubt; inactive = no such curve, though single readings can be large; an effect the other way counts as inactive or inconclusive;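 also: plate controls were enzyme without inhibitor for no effect and buffer without enzyme for full effect; nearly all actives have a fitted effect of over 40% in size; top concentration of the series not given in the record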
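Purified cruzain at 1.5 nM, pre-incubated 15 min with compound at room temperature in 100 mM sodium acetate pH 5.5, 5 mM DTT, 0.00005% Triton X-100. Reaction started with 2 uM Z-FR-AMC; AMC fluorescence increase over 60 s gives rate.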
SARS PLpro yeast – blocks SARS-CoV papain-like protease in a yeast assay; S. cerevisiae expressing SARS-CoV PLpro, growth rescue; control for the full effect not named in the record; Potency, µM (highest dose often 32.9 µM), without a hit: at the top dose activity, positive = growth rescue; 330,000 tested, 0.19% active; AID 485353; also: 0% is about no effect; nearly all actives have a fitted effect of over 55% in size; growth read by luminescence after 48 h
An asterisk follows results filed as active; ? = inconclusive; / = no result given; & = joins results of further samples; [ ] = remark or other dose. Unless noted, calls follow the shape of the dose curve; as a rule, active means well fitted rising curve with a large enough effect; inconclusive means small, poorly fitted or top-dose-only effect; inactive means no such curve, though single readings can be large or run the other way. Potency is read from the fitted curve at half-maximal effect.

SMILES	Lassa entry inh	NS1 function inh	RE007 growth inh	Marburg entry inh	Cruzain inh Det	StopGo reporter	Cruzain noTriton	SARS PLpro yeast
O=C(NNc1ccccc1)c1ccccc1	-29%	/	137%	?	/	-7%	/	/
CCOc1ccc(C(=O)NCC(C)NC(=O)c2ccc(OCC)cc2)cc1 (stereo not drawn)	/	9%	0%	/	/	-9%	/	-3%
CC(C)C(OC(=O)c1ccco1)C(=O)NCc1ccccc1 (stereo not drawn)	10%	-11%	-6%	15%	-1.0%	0%	3%	2%
O=C(COC(=O)CCC(=O)c1cccs1)NCc1ccc(Cl)cc1	1%[46.1 µM]	8%	9%	4%[46.1 µM]	/	-7%	/	-2%
CCOC(=O)c1c(C)[nH]c(C)c1C(=O)CSc1nnc(N)s1	12%[46.1 µM]	1%	1%	-9%[46.1 µM]	/	-8%	/	2%
COc1ccc(C(=O)c2sc3nc(-c4ccccc4)ccc3c2N)cc1OC	?	7%	40%	-24%	-5.0%	-21%	2%	-5%
CCc1ccc2occ(CC(=O)Nc3c(C(=O)Nc4ccc(C)cc4)oc4ccccc34)c2c1	14%[46.1 µM]	/	/	?	0.4%	15%	-13%	/
COC(=O)C1OC2(OC1C(=O)OC)c1ccccc1-c1ccccc12 (stereo not drawn)	2%	-53%	-3%	7%	-3.9%	-11%	-1%	-4%
Cc1cc(=O)n(CCO)c(O)c1C#N	0%	-4%	9%	2%	-1.6%	14%	-12%	5%
CCc1ccc(-n2c(=O)c3c4c(sc3n(CC(=O)c3ccc(Cl)cc3)c2=O)CCC4)cc1	3%[46.1 µM]	/	/	6%[46.1 µM]	-3.7%	-25%	-1%	/
COc1cc2cc(CN(CCO)C(=O)c3cccs3)c(=O)[nH]c2cc1OC	3%	-1%	16%	12%	-3.9%	22%	-2%	10%[6.58 µM]
Cc1c(C(=O)Nc2ccc3c4c(cccc24)CC3)cccc1[N+](=O)[O-]	-18%	17%	-9%	-9%	-5.9%	-7%	-4%	3%
CC(=O)c1ccc(N2CCN(C(=O)C3CCN(S(=O)(=O)c4ccc5c(c4)CC(C)N5C(=O)C4CC4)CC3)CC2)cc1 (stereo not drawn)	/	2%	8%	/	/	?	/	-3%
O=C(O)CCNS(=O)(=O)c1ccc(Oc2ccccc2Cl)cc1	-1%	9%	54%	-4%	-3.7%	-3%	-2%	1%
COc1ccc(C(CNC(=O)c2cccc(S(=O)(=O)Nc3ccccc3OC)c2)N2CCCC2)cc1 (stereo not drawn)	-16%	/	3%	?	/	12%	/	3%
Cc1c(C(=O)N2CCN(c3ccccc3F)CC2)sc2nc(-c3ccccc3)cn12	-7%	-37%	2%	?	0.7%	-16%	12%	6%
Cc1cc(=O)oc(C)c1C(=O)Nc1ccc(Cl)cn1	7%	14%	5%	-10%[46.1 µM]	0.0%	6%	2%	4%
CCOc1ccccc1N1C(=O)c2cccnc2C1=O	/	-7%	-1%	/	0.0%	-16%	6%	5%
c1ccc(Cc2nc3ccccc3[nH]2)cc1	/	-16%	-2%[18.4 µM]	/	/	2%	/	9%
O=c1[nH]c(=S)n(Cc2ccc(F)cc2)c(O)c1C=NCC1CCCO1 (stereo not drawn)	-8%	-6%	-6%[3.69 µM]	-27%	1.4%	-10%	4%	6%
CC1CN(C(=S)Nc2ccccc2)C(C)CN1C=O (stereo not drawn)	-4%[46.1 µM]	/	-12%	0%[46.1 µM]	/	6%	/	/
Cc1ccc(C2CC(c3cccs3)=NN2C(=O)CSC2=NCCS2)cc1 (stereo not drawn)	/	-18%	26%	/	/	?	/	-3%
COc1ccc(CC(=O)Nc2nn(C)c3nc4c(C)cccc4cc23)cc1	-6%	-8%	0%	?	/	-8%	/	-3%
Cc1c(-n2c(=O)n(Cc3ccccc3)c(=O)c3[nH]cnc32)cccc1S(C)=O (stereo not drawn)	?	-2%	-17%	?	/	5%	/	-2%
Cc1ccccc1NS(=O)(=O)c1ccc(C(=O)N2CCCC(C(F)(F)F)C2)cc1 (stereo not drawn)	-10%	/	3%	?	/	?	/	3%
CC(C)(O)[C@H](O)COc1c2ccoc2cc2oc(=O)ccc12	-4%	-23%	5%	6%	-1.6%	-7%	-4%	2%
O=C(c1ccc(S(=O)(=O)N2CCCCC2)cc1)c1nnc(-c2ccc(Cl)cc2)o1	9%	-7%	-3%	-1%	1.6%	-25%	-13%	3%
COc1ccc2c(CCN)c[nH]c2c1	9%	2%	0%	15%	3.0%	-19%&-13%	0%	-7%
O=C1CN=C(Nc2ccc(Cl)cc2)N1c1ccccc1	13%	-9%	6%	26%	3.2%	0%	-4%	3%
Cc1ccccc1Cn1c(SCc2ccc(C(=O)NC3CCCC3)cc2)nc2ccncc21	/	/	/	6%[46.1 µM]	-3.6%	-21%	-11%	/
COC(=O)c1ccc(NC(=O)Cn2nnc(-c3cccs3)n2)cc1	/	3%	5%	/	/	10%	/	3%
Cc1cc2nc3c(=O)[nH]c(=S)[nH]c3nc2cc1NC(=O)C(F)(F)F	/	10%	-11%	/	/	14%	/	2%
CCc1ccc(NC(=O)CSc2ccc3nc(-c4ccc(OC)cc4)cn3n2)cc1	?	/	/	/	1.2%	39%[activator]	?	/
O=C(O)c1cccc(NC(=O)c2ccc(N3C(=O)c4ccc(C(=O)Nc5cccc(C(=O)O)c5)cc4C3=O)cc2)c1	-18%	1%	7%	-2%[46.1 µM]	/	-12%	/	6%
Nc1nonc1C(=O)NCCNC(=O)c1cccc(Cl)c1	2%	-2%	-7%	5%[46.1 µM]	/	-10%	/	3%
COc1ccc(/C=C2\C(=O)NC(=S)N(C)C2=O)cc1C	1%	7%	24%	-3%[46.1 µM]	/	-10%	/	0%
Cc1c(C)n(C)c2ccc(C(=O)N3CCN(c4ccccc4)CC3)cc12	0%[46.1 µM]	-8%	-8%	/	-5.0%	33%&-19%[activator]	-6%	-34%
CCn1ncc(CNC(=O)C2(C)CC2(Cl)Cl)c1C (stereo not drawn)	-6%	8%	-3%	26%	3.1%	0%	0%	18%
CCOc1ccc(C(=O)NCc2ccc3c(c2)CCN3C(=O)c2ccc(Cl)cc2)cc1	24%[46.1 µM]	/	/	/	1.8%	-11%	5%	/
COc1ccc(Cl)cc1NC(=O)C1CCN(c2nnc(C)c3c(C)n(-c4ccccc4)nc23)CC1	16%[46.1 µM]	/	/	/	-2.7%	?	16%	/
OCCCCNCc1ccc(OCc2ccccc2)cc1	20%	-13%	11%	?	-0.5%	15%	-3%	7%
CC(Oc1ccc(Cl)cc1Cl)C(=O)NNC(=O)C(=O)N1CCCC1 (stereo not drawn)	6%	7%	-5%	9%[46.1 µM]	/	-2%	/	5%
O=C(O)c1csc(-c2ccc(Cl)cc2)n1	-16%	/	20%	?	/	0%	/	0%
S=C(Nc1ccccc1Cl)NC1CC2CCCC(C1)N2C1CC1 (stereo not drawn)	/	-11%	7%	/	/	39%[activator]	/	0%
CCOC(=O)N1CCN(C(=O)CSCc2ccc(Cl)cc2)CC1	?	-4%	1%	0%	3.7%	-19%	2%	0%
c1ccc(-c2cc(-c3ccccc3)n3ncnc3n2)cc1	?	/	-11%	?	/	-24%	/	2%
CC(C)=Cc1c(O)nc2ccccn2c1=O	3%	0%	-9%	-16%&-16%[46.1 µM]	/	-8%	/	0%
COc1cc(NC(=O)C2CCCCC2)c(OC)cc1NC(=O)CCC(=O)NCc1ccco1	1%	3%	7%	?	3.6%	-6%	8%	-1%

Four structures from above, ordered by number of heavy atoms, descending:
SMILES	Lassa entry inh	NS1 function inh	RE007 growth inh	Marburg entry inh	Cruzain inh Det	StopGo reporter	Cruzain noTriton	SARS PLpro yeast
COc1ccc(Cl)cc1NC(=O)C1CCN(c2nnc(C)c3c(C)n(-c4ccccc4)nc23)CC1	16%[46.1 µM]	/	/	/	-2.7%	?	16%	/
CCOc1ccc(C(=O)NCc2ccc3c(c2)CCN3C(=O)c2ccc(Cl)cc2)cc1	24%[46.1 µM]	/	/	/	1.8%	-11%	5%	/
Cc1c(C)n(C)c2ccc(C(=O)N3CCN(c4ccccc4)CC3)cc12	0%[46.1 µM]	-8%	-8%	/	-5.0%	33%&-19%[activator]	-6%	-34%
CCOC(=O)N1CCN(C(=O)CSCc2ccc(Cl)cc2)CC1	?	-4%	1%	0%	3.7%	-19%	2%	0%

Later entries.
SMILES	Lassa entry inh	NS1 function inh	RE007 growth inh	Marburg entry inh	Cruzain inh Det	StopGo reporter	Cruzain noTriton	SARS PLpro yeast
O=C(OCC(=O)N1CCc2ccccc2C1)c1ccc(OC(F)F)cc1	9%	/	1%	19%	/	-13%	/	-11%
COc1ccc(NC(=O)c2nc(S(=O)(=O)Cc3cccc(C)c3)ncc2Cl)c(OC)c1	/	-2%	-11%	/	/	3.2µM*	/	8%
COc1ccc(CNC(=S)Nc2ccc3nc(N4CCOCC4)cc(C)c3c2)cc1	-9%	/	-5%	-11%	/	23%	/	3%
CSc1c(C#N)c(N)nc2sc(C(=O)c3ccc(Cl)c(Cl)c3)c(N)c12	2%	7%	-10%	2%&2%[46.1 µM]	/	?	/	2%
CCC(OC(=O)c1nsc(Cl)c1Cl)C(=O)NCc1cccs1 (stereo not drawn)	22%	-1%	-5%	-7%	-3.7%	3%	1%	16%
Cc1nc(SC(C)C(=O)c2c(N)n(C)c(=O)n(C)c2=O)c2c(C)c(C)sc2n1 (stereo not drawn)	-18%	/	-6%	7%	/	-29%	/	-3%
O=C(c1ccc(Cl)cc1)N1CCC(O)(CSc2ccc(Cl)cc2)CC1	-11%	-64%	35%	?	-8.1%	?	?	-22%
Cc1ccc(NC(=O)CCSc2nnnn2-c2ccc3c(c2)OCO3)cc1C	6%	1%	0%	-20%	-3.1%	-16%	-11%	-11%
CCOC(=O)c1ccccc1N=Cc1c(O)c2ccccc2oc1=O	/	6%	0%	/	/	-5%	/	-3%
CCOc1ccc(NS(=O)(=O)c2ccc(C(=O)NCc3ccncc3)cc2)cc1	-9%[46.1 µM]	/	8%	-19%	/	5%	/	-5%
